TRPML1 agonist = agonists of human TRPML1 channel; AID 624414; 0.12% of 410,000 active; activation, % (test concentration not listed); Q9GZU1; TRPML1-expressing cells, Ca2+ dye fluorescence, FDSS; host cell line not named in the record; reference of the full effect not given here; in the data active = activation above about 50%; inconclusive = about 30% to 50%; inactive = below about 30%; further: 0% is about no effect; the text of the record puts the active cut at 80%
Target sequence (Q9GZU1 whole entry, looked up): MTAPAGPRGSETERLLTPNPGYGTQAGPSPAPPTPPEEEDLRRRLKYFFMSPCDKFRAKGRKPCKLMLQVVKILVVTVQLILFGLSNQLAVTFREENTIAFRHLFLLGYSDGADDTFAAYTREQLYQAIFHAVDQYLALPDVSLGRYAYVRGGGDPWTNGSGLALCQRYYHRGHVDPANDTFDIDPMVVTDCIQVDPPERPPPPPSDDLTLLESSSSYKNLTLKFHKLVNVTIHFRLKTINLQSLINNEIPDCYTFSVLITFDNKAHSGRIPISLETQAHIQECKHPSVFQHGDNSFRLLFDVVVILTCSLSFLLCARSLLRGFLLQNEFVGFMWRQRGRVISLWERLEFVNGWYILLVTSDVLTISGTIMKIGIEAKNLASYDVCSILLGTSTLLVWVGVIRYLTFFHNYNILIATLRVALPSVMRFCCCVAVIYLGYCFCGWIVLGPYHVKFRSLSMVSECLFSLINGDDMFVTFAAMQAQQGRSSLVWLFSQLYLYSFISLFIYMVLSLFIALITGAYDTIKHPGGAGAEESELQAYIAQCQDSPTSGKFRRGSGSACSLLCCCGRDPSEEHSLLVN
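Agonist activity was taken from a 110 s kinetic Ca2+ dye read on the FDSS after pinning compounds onto TRPML1-DL cells. The cells were seeded at 1,500/well with Tet inducer, incubated about 16 h, then dye-loaded at room temperature.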
PINK1 expr mod = PINK1 expression modulation | PINK1 immunofluorescence, high-content cytometry, 24 h | Potency, µM (highest dose often 76.6 µM), inactives show top-dose activation (PINK1 increase), hits mostly activators | 0.2% of 410,000 active; active = well fitted activation curve with a large enough effect; inconclusive = small, poorly fitted or top-dose-only effect; inactive = flat fitted curve, though single readings scatter; cell line not stated here;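 further: potency means the concentration at half of the fitted maximal effect; % of control where 0% means no effect; nearly all actives have a fitted effect of over 65% in size; a mitochondrial uncoupler was the plate control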
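PINK1 protein level read as immunofluorescence by microplate cytometer in a fixed, stained stable cell line after 24 h exposure to five compound concentrations, with CCCP as control.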
* = called active by the depositor; ? = inconclusive. The list is partial, so the mix of outcomes need not match the whole.

Fields – PINK1 expr mod	TRPML1 agonist
CCOc1ccc(NC(=O)CN2C(=O)C3(SCC(=O)N3c3ccc(F)cc3)c3ccccc32)cc1 (stereo not drawn)
 : -4.2%	0.6
Cc1coc2cc3oc(=O)c(CCC(=O)NCc4ccccc4Cl)c(C)c3cc12
 : 0.5%	-0.3
Cc1cccc(C(=O)NCc2cn3cccc(C)c3n2)c1
 : 0.1%	-0.4
COc1ccc(-c2cc(C(F)(F)F)n3nc(C(=O)Nc4cc(C(F)(F)F)ccc4Cl)cc3n2)cc1OC
 : 0.3%	-0.6
COc1ccc(-c2nc(CN3CCC(C(=O)NCCc4ccccc4)CC3)c(C)o2)cc1OC
 : 0.8%	0.4
COc1ccc(-c2cc(C(F)(F)F)nc(S(=O)(=O)CCCC(=O)Nc3ccccc3C(F)(F)F)n2)cc1OC
 : -0.8%	1.3
O=C(CSc1nc2nccnc2c(=O)n1CCc1c[nH]c2ccccc12)Nc1ccccc1
 : 1.2%	1.8
COc1ccc(Cl)cc1NC(=O)c1cc(-c2ccc3c(c2)OCO3)on1
 : 0.3%	-0.9
COc1cc(C(=O)OCc2cc(=O)n3ccsc3n2)cc(OC)c1OC
 : 4.8%	-1.0
CSc1ncc(C(=O)NCc2ccc(Cl)cc2)c(C(F)(F)F)n1
 : 15%	1.6
COc1cc(OC)c(N(C)C(=O)c2sc3nc4n(c(=O)c3c2C)CCCC4)cc1Cl
 : 1.4%	-1.0
O=C(Nc1ccc(Cl)cc1)c1cnn2c1NC(c1ccccc1)=CC2c1ccccc1 (stereo not drawn)
 : ?	-0.3
CC(C)(C)C(=O)Nc1ccc2nc(SCC(=O)N3CCCC3)sc2c1
 : 0.4%	4.0
Cc1ccc(CNC(=O)CN2C(=O)CSc3c2c(C)nn3-c2ccccc2)cc1
 : 9.6%	-1.3
COCCn1c(C)cc(O)c(C(c2ccc(Cl)cc2)N2CCCCC2)c1=O (stereo not drawn)
 : 0.2%	0.7
CCOc1ccc(CNC(=O)C2CCCN(S(=O)(=O)N(CC)c3ccc(OCC)cc3)C2)cc1 (stereo not drawn)
 : -1.3%	3.6
O=C(Nc1c(Cl)cc([N+](=O)[O-])cc1Cl)c1cc(Cl)cc(Cl)c1O
 : 14µM*	-0.3
O=C(Cn1cc(SCc2cccc(Cl)c2)c2ccccc21)N1CCCCC1
 : 2.9%	0.0
COc1ccc(OC)c(CNC(=O)CN2N=C(c3ccc(Cl)cc3)CCC2=O)c1
 : 1.2%	-0.3
Cc1ccc(C)c(CNC(=O)c2ccc3c(c2)nc2n3CCCCC2)c1
 : 1.6%	0.1
CCOc1ccc(C2=NC(c3ccc(OC)cc3)=Nc3ccc(Cl)cc3N2)cc1
 : -1.0%	2.0
CCOc1ccc(-c2nonc2NC(=O)c2ccc(C)cc2)cc1OCC
 : 4.2%	-0.1
O=C(CCCn1c(=O)c2sccc2n(Cc2ccc(F)cc2Cl)c1=O)NCc1ccc2c(c1)OCO2
 : -0.3%	1.4
CCc1ccc(-c2nc3c(c(SCc4ccc(F)cc4)n2)Cc2c(CO)cnc(C)c2O3)cc1
 : -1.6%	0.1
COc1ccc(N2CC(NC(=O)/C=C\c3ccc4c(c3)OCO4)CC2=O)cc1 (stereo not drawn)
 : 2.6%	-0.6
CCOc1ccc(CCNC(=O)c2nn(-c3ccc(OC)cc3)c(=O)c3c2c2ccccc2n3C)cc1OCC
 : 1.7%	1.6
Cc1cc2nc(-c3cc(NC(=O)c4cc5ccccc5o4)ccc3Cl)oc2cc1C
 : 1.6%	0.3
CCOC(=O)c1c(NC(=O)c2ccc(S(=O)(=O)N3CCC(C)CC3)cc2)sc2c1CCN(C(C)C)C2
 : ?	1.1
O=C1CC(c2ccccc2)Cc2[nH]c(=O)c(-c3nc(-c4ccc(Cl)c(Cl)c4)cs3)cc21 (stereo not drawn)
 : 6.3%	0.5
Cc1cc(Cl)ccc1-n1c(CCC(=O)O)ccc1-c1cccs1
 : -0.4%	0.0

Profiles as entered above. Order of screens: PINK1 expr mod | TRPML1 agonist
`COc1ccc(N2CC(NC(=O)/C=C\c3ccc4c(c3)OCO4)CC2=O)cc1` (stereo not drawn) as listed: 2.6% | -0.6
`O=C(Cn1cc(SCc2cccc(Cl)c2)c2ccccc21)N1CCCCC1` as listed: 2.9% | 0.0

New compounds follow.
Fields – PINK1 expr mod	TRPML1 agonist
Cc1cccc(-n2ncc3c(N4CCN(c5ccccc5)CC4)ncnc32)c1
 : 0.2%	2.5
COc1ccccc1CNS(=O)(=O)c1cc(Br)cc2c1N(C(=O)C1CC1)CC2
 : 1.1%	-0.6
Cc1nc(-c2ccccc2)sc1CCNC(=O)C(=O)Nc1ccc2c(c1)OCCO2
 : 0.2%	2.8
O=C(Cn1c(=O)nc(-c2ccccc2)c2ccccc21)NCc1ccc(Cl)cc1
 : 1.1%	2.8
O=C(CCc1nnc2n(Cc3ccccc3Cl)c(=O)c3ccccc3n12)Nc1ccc(F)c(F)c1
 : 1.4%	-0.3
CCc1ccc2oc(C(=O)Nc3sc4c(c3C(=O)NC)CCCC4)cc(=O)c2c1
 : 18%	1.9
CCc1ccccc1NC(=O)Cn1c(=O)n(CCc2ccccc2)c(=O)c2ccccc21
 : 0.5%	-0.4
Cc1ccc(NC(=O)c2sc3ncnc(N(C)C4CCCCC4)c3c2C)cc1
 : -0.8%	-0.1
CC(C)(C)c1ccc(OCCOCCn2c(-c3ccc(Cl)cc3)nc3ccccc3c2=O)cc1
 : -1.4%	1.6
CCc1ccc(C(=O)c2cn(CC(=O)Nc3ccc4c(c3)OCO4)c3cc(OC)c(OC)cc3c2=O)cc1
 : 3.0%	-0.2
COc1ccc(-c2noc(CSCC(=O)Nc3cc(OC)c(OC)c(OC)c3)n2)cc1OC
 : -11%	-0.1
CCN(Cc1ccccc1)Cc1c(O)ccc2c(=O)c(-c3ccc(Cl)cc3)c(C(F)(F)F)oc12
 : 1.9%	1.6
Cc1cccc(CSc2cn(CC(=O)N3CCCC3)c3ccccc23)c1
 : -0.8%	2.3
Cc1cc(C)cc(OCCSc2nc3ccc(NC(=O)c4ccc5c(c4)OCO5)cc3s2)c1
 : 5.2%	0.0
CCc1ccc(S(=O)(=O)N(C(=O)Oc2ccccc2)c2ccc3oc(C)c(C(=O)OC)c3c2)cc1
 : 8.1%	-0.6

PINK1 expr mod, entries above that show a hit
SMILES	PINK1 expr mod
O=C(Nc1c(Cl)cc([N+](=O)[O-])cc1Cl)c1cc(Cl)cc(Cl)c1O	14µM*

Four entries from above, arranged by molar mass, rising.
Fields – PINK1 expr mod	TRPML1 agonist
Cc1ccc(C)c(CNC(=O)c2ccc3c(c2)nc2n3CCCCC2)c1
 : 1.6%	0.1
O=C(Cn1cc(SCc2cccc(Cl)c2)c2ccccc21)N1CCCCC1
 : 2.9%	0.0
Cc1nc(-c2ccccc2)sc1CCNC(=O)C(=O)Nc1ccc2c(c1)OCCO2
 : 0.2%	2.8
CCc1ccccc1NC(=O)Cn1c(=O)n(CCc2ccccc2)c(=O)c2ccccc21
 : 0.5%	-0.4

The listing continues.
Fields – PINK1 expr mod	TRPML1 agonist
CCOC(=O)c1c(S(=O)(=O)NCC(=O)N(C)c2ccc(C)cc2)c(C)n(C)c1C
 : 1.5%	1.8
Cc1ccc(N2CC(NC(=O)/C=C\c3ccc4c(c3)OCO4)CC2=O)cc1 (stereo not drawn)
 : -1.2%	-1.1
Cc1nnc(N2CCC(C(=O)NCCc3ccccc3)CC2)c2nn(-c3ccc(Cl)cc3)c(C)c12
 : 3.6%	0.4
COc1ccc(C(=O)Nc2cc(-c3ccccc3)nn2-c2ccccc2)cc1
 : 0.5%	0.0
COc1ccc(-c2cnc(C)o2)cc1S(=O)(=O)Nc1ccc(OC(F)(F)F)cc1
 : 1.5%	-0.7
CC1CCCN(c2c(S(=O)(=O)c3ccccc3)cnc3ccc(Cl)cc23)C1 (stereo not drawn)
 : 0.0%	0.2
O=C(CSc1nc2c(oc3ccccc32)c(=O)n1Cc1ccco1)Nc1ccccc1
 : 2.6%	-0.7
COc1ccc2nc3oc(C(=O)N(C)c4ccc(Cl)cc4)cc3cc2c1
 : -0.3%	-0.5
Cc1ccc(CCNC(=O)Cn2nc(C)c3c(C)n(-c4ccc(C)cc4)nc3c2=O)cc1
 : -0.9%	0.4
CCS(=O)(=O)N1CC(=O)N(c2ccc(Cl)cc2C)C(C)(C(=O)NC2CCCCCC2)C1 (stereo not drawn)
 : -0.3%	0.7
COc1ccc(CNC(=O)CCC(=O)N2CCSc3ccccc32)cc1
 : 3.5%	0.6
NS(=O)(=O)c1ccc(CCNC(=O)c2nc(SCc3ccccc3F)ncc2Cl)cc1
 : 5.7%	3.4
Cc1cccc(NS(=O)(=O)c2ccc3c(c2)CCN3C(=O)C2CCC2)c1
 : 1.5%	1.2
Cc1ccc(Nc2ncnc3c2nc2n3CCCC2)c(Br)c1
 : 11%	2.8
Cn1c(=O)c2c(nc(N3CCOCC3)n2Cc2ccc(Br)cc2)n(C)c1=O
 : 1.5%	0.2
CCn1cc(S(=O)(=O)c2cccc(Cl)c2)c(=O)c2cc(F)c(N3CCN(C)CC3)cc21
 : 25%	-0.4
COc1ccc(CNC(=O)C2CCN(S(=O)(=O)c3ccc4c(c3)CCCN4C(C)=O)CC2)cc1
 : -0.9%	-0.1
O=c1c2c3c(sc2nnn1CCCCOc1ccc(Cl)cc1)CCCC3
 : 8.1%	1.0
COc1ccc(N2C(=O)CCSC23C(=O)N(Cc2ccc(F)cc2)c2ccccc23)cc1Cl (stereo not drawn)
 : 7.0%	1.4
Cc1ccc(NC(=O)c2oc3ccccc3c2NC(=O)Cc2ccccc2)cc1
 : 4.6%	0.3
COc1ccccc1Nc1nn2c(=O)c3ccc(C(=O)NC4CCC(C)CC4)cc3nc2s1 (stereo not drawn)
 : -3.0%	1.5
CCOC(=O)c1ccccc1OCc1cc(C2Nc3ccccc3C(=O)N2c2cccc3ccccc23)ccc1OC (stereo not drawn)
 : -0.4%	-0.6
Cc1cc(C)cc(NC(=O)c2cc(S(=O)(=O)N3CCC(C)CC3)cn2C)c1
 : 5.0%	1.2
O=C(Cn1ncc2ccsc2c1=O)N1CCN(c2ccc(F)cc2)CC1
 : -0.7%	0.8
CCCCCCn1c(SCC#N)nc2ccccc2c1=O
 : 0.4%	1.1
CC(=O)NC1=C(C#N)CCC1
 : 0.8%	0.1
COc1ccccc1NC(=O)c1c(NCc2ccc(OC)c(OC)c2OC)sc2c1CCC2
 : 2.7%	-0.5
Cc1ccc(C2C=C(c3ccc(Cl)cc3)Nc3nc(NS(=O)(=O)c4ccccc4)nn32)cc1 (stereo not drawn)
 : 0.0%	26
CCCCN(CC)CCNc1ncnc2onc(-c3ccc(Cl)cc3)c12
 : -0.4%	-1.6
Cc1oc2ncnc(N3CCCCC3)c2c1C(=O)N1CCN(c2ccc(Cl)cc2)CC1
 : 0.8%	-0.8
Cc1cc(NC(=O)CN2CCC(C)CC2)nc2c1c(=O)oc1ccccc12
 : 3.2%	-1.0
O=C(Nc1ccc2nc(SCc3ccccc3)sc2c1)c1cccc(F)c1
 : 12%	-0.6
COC(=O)c1c(NC(=O)COc2cc(C)c(Cl)c(C)c2)sc2c1CCCC2
 : -0.4%	1.2
CCOC(=O)C1=C(CS(=O)(=O)c2ccc(F)c(C)c2)NC(=O)NC1c1ccccc1OC (stereo not drawn)
 : 0.8%	-0.5
Cc1ccc(Cn2c(=O)n(Cc3ccco3)c(=O)c3sc4ccccc4c32)cc1
 : 1.5%	-0.5
Cc1cc(C(=O)C(=O)Nc2nncs2)c(C)n1-c1ccc(Cl)cc1
 : -0.5%	-0.2
Cc1cccc(CC(=O)N2CC(=O)Nc3ccc(C)cc3C2c2ccc(F)cc2)c1 (stereo not drawn)
 : -0.3%	-1.1
COc1ccc(-c2csc(-c3c(N)c(C(=O)c4ccccc4)n4ccccc34)n2)cc1
 : 1.3%	0.2
COc1cccc(Nc2c3c(nc4nncn24)CCC3)c1
 : -0.6%	0.5
Cc1ccc(NC(=O)CSc2ncc3c(n2)-c2ccccc2N(C)S3(=O)=O)c(Cl)c1
 : 11%	1.3
COc1ccc(CCNC(=O)Cn2cc(C(=O)c3ccc(F)cc3)c(=O)c3ccc(C)nc32)cc1OC
 : 2.3%	1.2
CC(=O)c1cccc(NC(=O)C2CCN(C(=O)c3cnn(-c4ccccc4)c3-n3cccc3)CC2)c1
 : 0.4%	-1.3
CCOC(=O)CNC(=O)N1CCN(S(=O)(=O)c2ccc3c(ccn3C)c2)CC1
 : 0.6%	0.5
CCOC(=O)Cn1c(=O)oc2cc(S(=O)(=O)N3CCN(c4ccccc4OC)CC3)ccc21
 : -1.9%	0.2
Cc1ccc(CNS(=O)(=O)c2ccc3c(c2)CC(C)N3C(=O)C2CCC2)cc1 (stereo not drawn)
 : 2.2%	3.8
COc1ccc(-c2noc(CC(=O)N(C)c3cccc(C)c3)n2)cc1
 : 0.4%	0.6
CC(=O)Nc1cc(C(=O)NCc2ccc(C)cc2)ccc1Sc1ccc(C)cc1
 : -0.1%	1.1
CCC(=O)N1CCc2cc(Br)cc(S(=O)(=O)Nc3ccccc3C(=O)OC)c21
 : 0.4%	-1.0
COc1ccc(Cl)cc1NC(=O)N1CCC(CN2CCCCCC2)CC1
 : 0.2%	1.2
CCOC(=O)c1cccc(NS(=O)(=O)c2cc(-c3cnc(C4CC4)o3)ccc2C)c1
 : 2.3%	-0.3
Cc1nc2cccnc2n1C1CCN(C(=O)Nc2ccccc2C(F)(F)F)CC1
 : 0.1%	0.3
CCCCOc1ccccc1Cn1c(=O)sc2ccccc21
 : 0.8%	2.9
Cc1oc2ncn(CC(C)C)c(=O)c2c1C(=O)N1CCN(c2ccc(F)cc2)CC1
 : -0.1%	-1.1

Screening data (PubChem)
